Screens (PubChem)
VACV E9 pol inh: inhibitors of vaccinia virus processive DNA synthesis (E9 polymerase); in vitro processive DNA synthesis, absorbance read-out; stronger effect = lower value; some inactives read as strong as hits; normalized absorbance, % (concentration not given with the values); actives 0.94% (n = 46,000); AID 493162;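 active = replicate mean up to 90% and picked by the depositor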;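 also: 100% = median of the test wells of a plate; 100 nL library stock went into each well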
An asterisk follows results filed as active; & = joins results of further samples. The list is partial (hit frequency here may not be typical).

Molecule,VACV E9 pol inh
c1ccc(-c2cnc3nonc3n2)cc1,101
Cn1c(=O)cc(OCCCC(=O)N2CCCCCC2)c2ccccc21,104
CN1C2CCC1/C(=C\c1ccccc1)C(=O)/C2=C\c1ccccc1,101
Cc1cc(C)[n+]2nc(-c3ccccc3)sc2n1,81
O=C(OCCNc1nc(-c2ccccc2)nc2ccccc12)c1ccncc1,93
CC(O)c1nc2ccccc2n1CCOc1ccccc1 (stereo not given),97
Cc1c(Cl)cccc1NC(=S)N(Cc1ccco1)C1CCN(C(C)C)CC1,102
O=c1oc2ccccc2n1CNc1ccccn1,100

New compounds follow
Molecule,VACV E9 pol inh
O=C(NCCCN1CCCCC1)c1ccc(-n2c(-c3ccccc3)cc3c2CCCC3)cc1,99
CCc1ccnc(NC(=O)Nc2ccccc2C(C)(C)C)c1,112
COc1ccc(C2=NOC(C(=O)NCc3ccccc3)C2)cc1 (stereo not given),100
CCN1CCN(C(=O)C23CCC(C)(C(=O)O2)C3(C)C)CC1 (stereo not given),122
CCCn1c(CCC(=O)N2CCc3ccccc3C2)nc2cccnc21,100
O=C(CSc1nc2ccccc2nc1-c1ccccc1)NCC1CCCO1 (stereo not given),116
CC1CCCC(NC(=O)COC(=O)c2ccc(O)cc2)C1C (stereo not given),94
CCCc1cc(=O)oc2cc(OC(=O)N(C)C)ccc12,118

The closing 5 compounds of the section before are carried over, then new ones follow.
Molecule,VACV E9 pol inh
CCN1CCN(C(=O)C23CCC(C)(C(=O)O2)C3(C)C)CC1 (stereo not given),122
CCCn1c(CCC(=O)N2CCc3ccccc3C2)nc2cccnc21,100
O=C(CSc1nc2ccccc2nc1-c1ccccc1)NCC1CCCO1 (stereo not given),116
CC1CCCC(NC(=O)COC(=O)c2ccc(O)cc2)C1C (stereo not given),94
CCCc1cc(=O)oc2cc(OC(=O)N(C)C)ccc12,118
Cc1ccccc1NC(=O)Nc1sc(NS(=O)(=O)c2ccccc2)nc1C,96
C[N+]1(CC(O)COc2ccc(Br)cc2)CCCCC1 (stereo not given),101
CCc1ccc(OCC(=O)Nc2ccc(OC)cc2)cc1,100
CC(C)(C)C(=O)/C=C1\NCCN\C1=C/C(=O)C(C)(C)C,100
Cc1cc(/C=C/C(=O)O)c(C)n1-n1cnnc1,96
Cc1cc2n(c(=O)c1C(N)=O)CCO2,101
CN(C(=O)CSc1nc2c(c(=O)[nH]1)CCC2)c1ccccc1,92
CCc1nc2ccccc2c(C(=O)O)c1C,103

12 entries drawn at random from the list so far, as already listed:
Molecule,VACV E9 pol inh
O=C(NCCCN1CCCCC1)c1ccc(-n2c(-c3ccccc3)cc3c2CCCC3)cc1,99
Cc1ccccc1NC(=O)Nc1sc(NS(=O)(=O)c2ccccc2)nc1C,96
CC(C)(C)C(=O)/C=C1\NCCN\C1=C/C(=O)C(C)(C)C,100
CCc1nc2ccccc2c(C(=O)O)c1C,103
O=C(CSc1nc2ccccc2nc1-c1ccccc1)NCC1CCCO1 (stereo not given),116
Cn1c(=O)cc(OCCCC(=O)N2CCCCCC2)c2ccccc21,104
Cc1cc2n(c(=O)c1C(N)=O)CCO2,101
CN(C(=O)CSc1nc2c(c(=O)[nH]1)CCC2)c1ccccc1,92
Cc1cc(/C=C/C(=O)O)c(C)n1-n1cnnc1,96
CCCc1cc(=O)oc2cc(OC(=O)N(C)C)ccc12,118
O=c1oc2ccccc2n1CNc1ccccn1,100
CCc1ccnc(NC(=O)Nc2ccccc2C(C)(C)C)c1,112

Additional structures follow.
Molecule,VACV E9 pol inh
CCN1CNC(=S)N(C2CCCCC2)C1,100
COc1ccc(OC)c2c1CC(C)(C)n1c(-c3ccc(Cl)cc3)nnc1-2,100
CCC(=O)Nc1nc2cc3nc(NC(=O)CC)sc3cc2s1,98
CC1(C)CC(NC(=O)c2cc3ccccc3oc2=O)CC(C)(C)N1,100
CNc1cc(NC)c2ncnc3c2c1C(=O)c1ccccc1-3,100
COC(=O)C1=C(C)N(C)C(=O)NC1c1ccc(O)c(OC)c1 (stereo not given),106
C[C@]12CCC3c4ccc(O)cc4CCC3C1CC[C@@H]2O (stereo not given in full),98
CCOC(=O)c1cc(S(=O)(=O)N(CC)c2ccccc2)cn1C,103

(listing goes on)
Molecule,VACV E9 pol inh
Oc1oc(-c2ccccc2)nc1C=Nc1ccc2ccccc2c1,101
CCOC(=O)c1nnn2c1nc(Sc1nc3ccccc3o1)c1ccccc12,104
CCc1ccccc1Nc1ncnc2c1cnn2-c1ccccc1,84
O=c1c2ccccc2n(Cc2ccccc2)c(=O)n1-c1cccc(Cl)c1,100
COC(CNC(=O)c1ccc(Cn2nnc3ccccc3c2=O)cc1)OC,101
Cn1c(=O)c(-c2nc(-c3ccccc3)cs2)cn(-c2ccccc2)c1=O,98
O=C(CSc1ccccc1C(=O)O)NC1CCCc2ccccc21 (stereo not given),103
c1ccn(-c2cnccn2)c1,102

Next section.
Molecule,VACV E9 pol inh
COc1ccc(CC(=O)n2[nH]c(=O)ccc2=O)cc1OC,81
Cc1cccc(CCNC(=O)CSc2c3c(nc4ccc(Cl)cc24)CCCC3)c1,103
Clc1ccc(NC2=NCCCS2)cc1Cl,88
O=C(c1cnccn1)N(Cc1cccs1)C1(C(=O)NC2CCCC2)CCCCC1,87
O=C(c1ccccc1SCc1ccccc1)N1CCCc2ccccc21,100
CCCn1c2ccc(C)cc2c2nnc(SCCN3CCOCC3)nc21,78
Cc1ccc(NC(=O)OC(C)(C)C)s1,100
Cn1cccc1C(C#N)c1ncc(C(F)(F)F)cc1Cl (stereo not given),105

Additional compounds follow:
Molecule,VACV E9 pol inh
O=C1CCC(Cc2ccccc2)C(C(=O)O)C1 (stereo not given),100
O=C(O)c1cc2cc(Cc3cccnc3)ccc2o1,102
N#CC1=C(SCC(=O)Nc2cccc(Cl)c2)NC2=C(C(=O)CCC2)C1c1ccco1 (stereo not given),99
N#Cc1ccc(NC(=O)Cc2ccccc2)cc1,95
CN(C(=O)NCc1noc2ccccc12)c1ccccc1,104
O=S(=O)(Nc1ccccc1)c1ccc2oc3ccc(S(=O)(=O)Nc4ccccc4)cc3c2c1,100
COc1ccc(Sc2cnc3ccccc3n2)cc1,103
O=C1CC2(CCCc3ccccc32)C(=O)N1CN1CCCCC1 (stereo not given),122

Later entries:
Molecule,VACV E9 pol inh
CC(C)(C)C(=O)Nc1nc(NC(=O)C(C)(C)C)nc(-c2ccccc2Cl)n1,98
O=C(O)c1ccc(NS(=O)(=O)/C=C/c2ccccc2)cc1,101
c1ccc(COc2c3c(nc4ccccc24)CCCC3)cc1,100
O=C(CN1CCCCC1)Nc1ccc(F)c(Cl)c1,103
O=C(CSc1cccc[n+]1[O-])N1CCCc2ccccc21,101
Cc1cc(O)cc2oc(C(F)(F)F)c(-c3cnn(-c4ccccc4)c3)c(=O)c12,95
C=CCn1c(=O)c2ccccc2n2nnc(C(=O)OCC)c12,97
CC1=Nc2cc(C(=O)NCCc3ccccc3)ccc2Sc2ccccc21,89

The results go on:
Molecule,VACV E9 pol inh
CCOc1ccc(NC(=O)NCc2cccn2C)cc1,98
CCc1ccc2[nH]c3nc(C)cc(C)c3c(=O)c2c1,100
CCC(C)C(NCc1c(O)ccc2c(C)cc(=O)oc12)C(=O)O (stereo not given),100
COc1cc(/C=C2/N=C(SCC(=O)c3ccccc3)N(c3ccccc3)C2=O)ccc1O,99
O=C(NCc1ccccn1)C1CCC(CNS(=O)(=O)c2ccccc2)CC1 (stereo not given),107
Cc1ccc(CSc2nc3ccccc3c3nc(CCn4nc(C)cc4C)nn23)cc1,99
O=C(O)C1OC(c2cccc(Cl)c2)=NC12CC2 (stereo not given),110
CCCNC(=O)c1cnn2c(C)c(Cc3ccccc3)c(C)nc12,99
O=C(O)CSCc1csc2c1CCCC2,88
CC1=CCC(Cc2nc3ccccc3o2)C1(C)C (stereo not given),100
CC1(C)CC(=O)C(C=NCCN2CCOCC2)=C(O)C1,100
Cc1ccc(-n2nc(C)c(C3(O)C(=O)N(CCC(C)C)c4ccccc43)c2N)cc1 (stereo not given),104

New compounds follow
Molecule,VACV E9 pol inh
Cc1cccc(C(=O)NCCSc2c[nH]c3ccccc23)c1,101
O=C1NCCCC1C(=O)NCCc1c[nH]c2ccc(OCc3ccccc3)cc12 (stereo not given),99
COc1cccc(Cc2nnc(-c3ccc(-c4cccs4)s3)o2)c1,99
CN1CCc2c(c3ccccc3n2Cc2ccccc2)C1,97&98
COc1ccc(C)cc1NC(=O)c1cc2c(s1)CCC2,102
CCCCCC[C@@H]([C@@H](C)O)n1cnc2c(N)ncnc21,101
Cc1cc(Nc2ccccc2)n(C(C)(C)C)n1,95
O=C(NCCc1ccccc1)c1cc2c(ccc3ccccc32)o1,100
Cc1ccc(-c2nn(CCC#N)cc2C#N)cc1,90
CC(=O)Nc1ccc(C(C#N)c2ccccc2)cc1 (stereo not given),100
Cn1cc(S(=O)(=O)CC(=O)N2CCOCC2)c2ccccc21,101
O=C(O)c1ccccc1N=Cc1c(O)[nH]c2ccccc12,81

Following part
Molecule,VACV E9 pol inh
Cc1cccc(C(=O)OCCN2CCOCC2)c1,98
Cc1[nH]c2ccccc2c1Cc1n[nH]c(=S)o1,106
COc1cc(CO)c(CC(=O)NN)cc1OC,104
Cc1ccc(C(=O)OCC(=O)NC2CCCCC2)s1,106
O=C(O)CCC(=O)NC1CCCCC1,94
CCOc1ccc(OCCCl)cc1,98
Cc1csc(NC(=O)C(NC(=O)c2ccccc2)C(C)C)n1 (stereo not given),105
Cc1ccccc1OC1OCCOC1Oc1ccccc1C (stereo not given),104
O=C(O)c1cccn1-c1ncc(C(F)(F)F)cc1Cl,115
N#CC1=C(c2ccc(Cl)cc2)Sc2ccccc2NC1=O,100
CC(Cn1nnc2ccccc21)C(=O)O (stereo not given),100
CCN(C(=O)NC1(C(F)(F)F)Oc2ccccc2O1)C1CCCCC1,87

Next section:
Molecule,VACV E9 pol inh
Cn1ccnc1SCC(=O)N1c2ccccc2CCc2ccccc21,99
CN1CCN(C(=O)C2CCC(C)(C(=O)O)C2(C)C)CC1 (stereo not given),75
CC(O)c1nc2ccccc2n1CC(=O)C(C)(C)C (stereo not given),99
CCOC(=O)c1nn(-c2ccc(OC)cc2)c(C(=O)OCC)c1NC(=O)C1CCCCC1,100
CCOC(=O)C1C(C)=NC(=O)NC1C (stereo not given),102
Cc1ccc(Cn2c(C3CC(=O)N(c4ccccc4)C3)nc3ccccc32)cc1 (stereo not given),106
CCc1cc2c(=O)c(-c3cscn3)coc2cc1O,103
Cc1ccc(OC(=O)c2c(-c3ccccc3)nnc3ccccc23)cc1,91
Cc1ccc(S(=O)(=O)Nc2cncc(C(=O)NC3CCCC3)c2)cc1,102
Cc1ccc(CSc2nnc(-n3c(=O)c(C#N)cc4c(=O)n5ccccc5nc43)s2)cc1,102
COc1ccc2c(c1)c(C(=O)CSc1ccccc1)c(C)n2C,95
Cc1c(-c2ccc(Cl)cc2)nc(N)c(C#N)c1-c1ccco1,100

Additional structures.
Molecule,VACV E9 pol inh
Clc1ccc(-c2cn3ccsc3n2)cc1,109
CCN1C(=O)c2ccccc2Sc2ccc(C(=O)NCc3ccccc3)cc21,82
CNCCCC12CCC(c3ccccc31)c1ccccc12,100
COC(=O)c1ccc(N2C(=O)C3ON(c4ccccc4C)C(c4ccc(F)cc4)C3C2=O)cc1 (stereo not given),100
O=C(NCc1ccc(Cl)cc1)c1cc2c(s1)CSC2,105
CC(=O)Oc1cncc(C(=O)O)c1,100
COc1ccc(CN2CCC(N(C)Cc3ccccc3)CC2)cc1,98
CC(C)c1ccc(S(=O)(=O)CC#N)cc1,97
Cc1ccc(CN2CCS(=O)(=O)CC2)o1,100
O=C1NC(=O)C(C(CC(=O)C2CC2)c2ccccc2)C(=O)N1 (stereo not given),101
NC(CC(=O)O)c1cccc(Oc2ccccc2)c1 (stereo not given),101
Cc1ccc2c(c1)-c1c(ssc1=S)C(C)(C)N2C(=O)C(C)C,100

(continued)
Molecule,VACV E9 pol inh
CC1C=CCC2C(=O)N(c3ccc4c(c3)CCC4)C(=O)C12 (stereo not given),101
O=C1CN(C(=O)c2cc3ccccc3oc2=O)c2ccccc2N1,102
OCCCc1cc(-c2ccccc2)n[nH]1,102
CN(C)c1ccc(/C=C/c2ccncc2)cc1,100
Cc1cc(C)c2nc(NC(=O)C(C)C)sc2c1,103
CC1C2(C)OC(=N)C(C#N)(C(c3ccncc3)O2)C1(C#N)C#N (stereo not given),100
COC(=O)N(C)c1ccccc1C(=O)N1CCOCC1,100
N#C/C(=C/c1cn(-c2ccccc2)nc1-c1cc2ccccc2o1)S(=O)(=O)c1ccccc1,100
CCc1ccc(NC(=O)c2cc(S(=O)(=O)N3CCCCC3)ccc2F)cc1,100
O=C(NCCc1ccccn1)C1COc2ccccc2O1 (stereo not given),105
O=c1oc(Cl)c(Cl)c2ccccc12,99
CCN(CC)C(=S)SCc1cn2cccnc2n1,98

The list continues:
Molecule,VACV E9 pol inh
COC(=O)C1=C(C)N(CC2CCCO2)C(=O)/C1=C\c1cc(C)n(-c2ccc(OC)c(Cl)c2)c1C (stereo not given),101
CCN1N=C(c2ccccc2)CCC1=O,92
CCOc1ccc2nc(SCCC(=O)Nc3ccccc3)sc2c1,100
NC(=O)CC1=NC(=O)CS1,86
O=S(=O)(c1ccc(C2CCCCC2)cc1)N1CCCC1,100
Fc1cccc(Cl)c1CSc1ncn[nH]1,106
C=CCn1c(-c2nonc2NC(=O)CC)nc2ccccc21,93
CCn1c(=O)c2c(n3c(SCC(N)=O)nnc13)-c1ccccc1CC21CCCCC1,100
CC(C)NC(=O)CCc1nc(-c2ccc(C(C)(C)C)cc2)no1,111
Cc1ccc(-n2nc3ccc(NC(=O)C(C)C)cc3n2)cc1,102
CC(C)N1C(=O)/C(=C\c2cccc3ccccc23)SC1=S,108
Cc1cc2cc(CNC(=O)C(C)C)ccc2n1C,100

More records:
Molecule,VACV E9 pol inh
Clc1cccc(Cc2cn3cc(-c4ccccc4)nc3s2)c1,100
COc1ccc2nc3oc(C(=O)N4CCC(N5CCCCC5)CC4)cc3cc2c1,94
CN1CCC(N(C)C(=O)c2cc3sc4ccccc4c3s2)CC1,94
Cc1cc(C(=O)O)nn1-c1ccccc1,112
COc1cccc(C(=O)N2CCN(Cc3cccc4ccccc34)CC2)c1,102
CCOc1ccc(N2Cc3ccccc3C2=N)cc1,100
